YopH PTP inh – inhibitors of Yersinia enterocolitica YopH tyrosine phosphatase | fluorescence Ex485/Em525 | inhibition, %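 (about 10 µM by stock and volumes)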 | 140,000 compounds, 0.16% hits;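 active = inhibition of 50% or more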;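 note: controls were vehicle for no effect and minimum signal wells for full effect; inactives centre near -20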
RecA splice inh – blocks M. tuberculosis RecA intein splicing; inhibition, %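 (about 9 µM by stock and volumes)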; AID 2221; cell-free RecA intein splicing, fluorescence; 290,000 compounds, 0.75% hits; P9WHJ3; in the data active = inhibition above about 30%; inconclusive = no clear call, values can overlap the other calls;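 note: 0% = vehicle wells and 100% = reference inhibitor control wells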
Target sequence (P9WHJ3 whole entry, looked up, canonical isoform): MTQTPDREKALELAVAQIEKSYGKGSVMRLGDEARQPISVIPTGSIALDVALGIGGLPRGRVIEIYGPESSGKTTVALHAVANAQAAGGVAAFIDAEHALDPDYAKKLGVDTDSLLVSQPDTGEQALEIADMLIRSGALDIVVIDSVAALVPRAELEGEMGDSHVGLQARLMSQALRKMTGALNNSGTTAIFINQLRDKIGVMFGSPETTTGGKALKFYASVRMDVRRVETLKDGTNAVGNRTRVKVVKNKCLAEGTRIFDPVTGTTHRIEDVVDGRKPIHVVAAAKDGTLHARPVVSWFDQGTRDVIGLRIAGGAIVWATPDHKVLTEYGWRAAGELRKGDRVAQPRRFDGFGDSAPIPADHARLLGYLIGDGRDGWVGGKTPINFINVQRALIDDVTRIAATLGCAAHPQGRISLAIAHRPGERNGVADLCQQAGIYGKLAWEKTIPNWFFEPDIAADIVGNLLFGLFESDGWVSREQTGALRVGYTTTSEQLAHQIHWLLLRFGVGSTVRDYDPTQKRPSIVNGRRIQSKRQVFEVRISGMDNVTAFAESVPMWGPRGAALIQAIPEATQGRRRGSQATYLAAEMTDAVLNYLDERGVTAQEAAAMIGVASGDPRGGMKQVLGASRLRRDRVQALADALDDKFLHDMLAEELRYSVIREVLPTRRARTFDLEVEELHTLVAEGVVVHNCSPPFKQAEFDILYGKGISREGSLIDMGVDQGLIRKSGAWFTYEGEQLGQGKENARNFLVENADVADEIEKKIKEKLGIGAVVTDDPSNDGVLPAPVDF
Mtb growth – M. tuberculosis H37Rv growth inhibitors, H37Rv strain (AID 1626); inhibition, % at 10 µM; hits with a dose series show IC50 in µM; 220,000 compounds, 0.95% hits; M. tuberculosis H37Rv growth inhibition; higher % means a stronger effect;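 active = confirmed in a dose series; inconclusive = inhibition above 80% but not taken into the dose series; inactive = below 80% or under 30% at every dose of the series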;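 note: bacteria incubated seven days before Alamar blue readout; 0% = bacteria only wells and 100% = bacteria with antibiotic wells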
Mtb bLac sens – beta-lactam sensitization of Mtb H37Rv; 330,000 compounds, 0.27% hits; M. tuberculosis H37Rv growth with meropenem, percent inhibition; hits of this screen are not shown here; inhibition, % at 25 µM;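 active = about 74% or more and at least 40 points above the plate without the antibiotic, then above 30% in a dose series; inconclusive = first-round hits that could not be retested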;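 note: growth measured after seven days incubation then overnight dye step; 0% = bacteria only wells and 100% = bacteria with antibiotic; twin plates without the antibiotic show which effects depend on it; some results filed as inactive read as strong as hits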
Arbovirus anti – blocks arbovirus infection; inhibition, % at 10 µM; arbovirus infection cell-based antiviral screen; 200,000 compounds, 0.37% hits;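 active = inhibition from about 30%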;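 note: bluetongue infection of BSR cells; cell survival read as ATP light after 72 h; 0% = infected wells without compound and 100% = uninfected wells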
Arbovirus anti repeat – recorded beside Arbovirus anti, whose call it bears; inhibition, %; measured here: 10K subset replicate screen; many hits read low in the repeat;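 first of two repeat runs on a subset; 0% = infected and 100% = uninfected wells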
The depositor's hits bear a star; ? = inconclusive; nt = not tested or not shown.

SMILES	YopH PTP inh	RecA splice inh	Mtb growth	Mtb bLac sens	Arbovirus anti	others
COc1ccc(N2CCN(C(=O)C3CCN(S(=O)(=O)c4ccccc4)CC3)CC2)cc1	nt	-3.0	2%	-1	1
CCN(CC(=O)NC(C)C)C(=O)c1ccc(S(=O)(=O)N(C)c2ccccc2OC)cc1	-49	-0.5	-2%	-1	2
COc1ccccc1NC(=O)c1sc2ncn(CC(=O)N3CCC(C)CC3)c(=O)c2c1C	nt	1.9	nt	5	nt
Cc1ccnc(N2CCCC(C(=O)Nc3cc(F)ccc3C)C2)n1 (stereo unspecified)	-31	0.7	-3%	-1	2
O=C(CCC(=O)N1CCCC1)Nc1nnc(C2CCCCC2)s1	-26	-1.1	3%	-5	15
O=C(CSc1nnc(Cn2c(=O)sc3ccccc32)n1CCc1ccccc1)N1CCCC1	0	0.6	nt	6	-5	Arbovirus anti repeat=-7
CC(C)(C)c1ccc(C(=O)N2CCC(C(=O)NC3CCCCCC3)CC2)cc1	nt	2.8	nt	7	nt
O=C(C1CCN(S(=O)(=O)c2ccc(Br)cc2)CC1)N1CCOCC1	nt	2.0	nt	-9	nt
Cn1ncc([N+](=O)[O-])c1C(=O)N1CCOCC1	-39	-0.1	-2%	-7	-2
CC(C)(C)S(=O)(=O)c1cnc(-c2cnccn2)nc1N	nt	0.1	4%	-6	nt
CN(Cc1nc(-c2ccccn2)no1)S(=O)(=O)c1ccccc1	-30	nt	2%	-11	7
COc1ccc(/C=C/C(=O)Nc2ccc(N3CCOCC3)cc2)cc1	-10	-0.8	6%	-3	-2
CC(C)CCNC(=O)CCc1nnc(COc2ccccc2)o1	nt	0.4	-1%	nt	12
CCn1c(C)cc(/C=C2/SC(=O)N(C(C)C(=O)OC)C2=O)c1C (stereo unspecified)	nt	1.3	0%	18	nt
CCOc1ccc(Nc2nc3ccccc3c(=O)s2)cc1	nt	-1.7	-4%	0	nt
Cc1cc(C(=O)NCc2ccco2)c2ccccc2n1	nt	-6.1	1%	-3	4
CCOc1cccc(C(=O)Nc2cccc(-c3nnc(-c4ccc(C)cc4)o3)c2)c1	-11	-1.4	-1%	3	-39
O=C(Cc1nn[nH]n1)c1ccccc1O	-28	-2.7	-2%	-6	0
Cc1cnc(SCCc2ccncc2)nc1C	-24	-0.3	-4%	-1	10
O=C1NN(c2cccc(Br)c2)C(=O)/C1=C\c1ccccc1	nt	3.4	nt	4	nt
COc1ccccc1-c1nc(C#N)c(N2CCCCCC2)o1	-14	6.6	3%	3	1
O=C(Nc1ccc(Cl)cc1)c1cnc(-c2ccccc2)nc1-c1ccccc1	-35	-5.4	-23%	12	3
CCN(CC(=O)NCc1ccc(Cl)cc1)C(=O)COc1cccc(C(F)(F)F)c1	nt	1.6	nt	-8	nt
Cc1cccc(NS(=O)(=O)c2cccc(C(=O)NCC(c3ccco3)N(C)C)c2)c1 (stereo unspecified)	nt	1.2	nt	-5	nt
CCn1nnc(NC(=O)c2ccc(-c3ccccc3[N+](=O)[O-])o2)n1	nt	0.0	-2%	-1	-1

Continuation:
SMILES	YopH PTP inh	RecA splice inh	Mtb growth	Mtb bLac sens	Arbovirus anti	others
COc1cc(NC(=O)CSc2nc(=O)n(CCN3CCOCC3)c3c2CCC3)cc(OC)c1	nt	0.4	nt	-2	nt
O=C(CSc1cccc2cccc(Cl)c12)NCc1cccs1	-19	13	-4%	16	10
CCN(CC)CCCNC(=S)N(CCCO)Cc1cc2cc3c(cc2[nH]c1=O)OCO3	nt	-4.3	nt	-6	nt
COC(=O)c1ccc(CNC(=O)COc2ccccc2Br)o1	3	0.7	5%	1	2
CCCN(Cc1ccccc1)C(=S)Nc1cccc(C)c1C	nt	-1.2	3%	-1	2
Cc1ccc(S(=O)(=O)NCC(c2cccnc2)N2CCOCC2)cc1 (stereo unspecified)	nt	2.2	3%	-5	1
COc1ccccc1N1CCN(C(=O)C2CCC(CNS(=O)(=O)c3ccc(NC(C)=O)cc3)CC2)CC1 (stereo unspecified)	nt	-2.9	nt	1	nt
Clc1ccc(Cl)c(OCCN2CCOCC2)c1	-37	2.4	6%	-9	-2
O=C(Cc1ccccc1)Nc1cccc(NC(=O)c2ccccc2)c1	nt	-3.6	nt	-2	nt
Cn1c(-c2ccccc2)nc2cnccc21	nt	1.1	-1%	-3	nt
Cc1cc(-c2nc3ncccc3o2)ccc1NC(=S)NC(=O)C(C)C	nt	0.1	-1%	-3	-5
CC(=O)Nc1cc(C(F)(F)F)ccc1OCC1CCCO1 (stereo unspecified)	-43	-1.5	5%	3	-2
CCOC(=O)N1CCC(N2Cc3cccc(C(=O)N4CC(C)CC(C)C4)c3C2=O)CC1 (stereo unspecified)	-20	4.5	-10%	-5	-7
COc1ccc2occ(C(=O)c3ccc(N=C(C)N(C)C)cc3)c2c1	-6	-3.7	nt	55	-19	Arbovirus anti repeat=-11
O=C(N/N=C/c1ccco1)C1(O)c2ccccc2-c2ccccc21	nt	-0.3	-7%	1	nt
COc1ccc(CN(C(=O)COc2ccccc2)c2ccccc2C(=O)O)cc1	nt	0.8	-4%	-5	nt
CCN(CC)C(=O)c1cc(-c2ccc(Br)cc2)on1	-46	1.1	1%	22	2
O=C(c1ccccc1)c1nn(-c2ccccc2)c2nnc(Cc3ccccc3)c(=O)n12	-62	7.2	-11%	-10	-12
Cc1cc(C(=O)N/N=C2\CCCC(=O)C2)c(C)n1-c1ccccc1	-54	0.2	6%	2	-2
COC(=O)CCSC(=S)N1CCOCC1	nt	0.2	-9%	-4	nt
CCn1cnc2cc(NS(=O)(=O)c3ccc(C)cc3)ccc21	-16	-1.6	-4%	-2	6
O=C(Cn1cc[n+](CC(=O)c2ccc(Cl)cc2Cl)c1)c1ccc(Cl)cc1Cl	nt	9.9	nt	8	nt
O=C(Nc1ccccc1C(=O)N1CCCC1)C1CCN(c2ncccn2)CC1	-35	-0.9	3%	?	0
CCC[N+]1(CC#CCC(c2ccccc2)c2ccccc2)CCCCC1	nt	-0.6	nt	-2	nt
C/C(=N/OC(=O)c1ccc(C)cc1)c1ccc(N2C(=O)C3CCCCC3C2=O)cc1 (stereo unspecified)	-23	-2.1	4%	14	2

Additional entries
SMILES	YopH PTP inh	RecA splice inh	Mtb growth	Mtb bLac sens	Arbovirus anti	others
COc1ccc(-c2noc(N3CCC(C(=O)NCCCN4CC(C)CC(C)C4)CC3)n2)cc1 (stereo unspecified)	nt	-0.2	nt	4	nt
CCOC(=O)N1CCC(NC(=O)c2cc3c(=O)n(C)c4ccccc4c3n2C)CC1	-7	-0.8	4%	-2	-7	Arbovirus anti repeat=-9
O=C(CCC(=O)Nc1ccc(F)cc1)N/N=C/c1cccc(Br)c1	nt	0.2	nt	-4	nt
COc1ccc(S(=O)(=O)N(C(C)=O)c2ccc3oc(=O)sc3c2)cc1	-38	-4.7	-4%	-5	-17
CC(C)(C)c1ccc(N2C(=N)SCC2=O)cc1	nt	nt	-1%	0	nt
COc1ccc(N2CCN(S(=O)(=O)c3ccc4c(c3)OCCO4)CC2)cc1	nt	-0.3	-3%	-16	9
COC(=O)CCN(C(=O)c1cccc(OC(C)=O)c1)c1ccccn1	-1	1.7	-7%	9	-3
Cn1c(=O)[nH]c(=O)c2c1nc(N1CCCCC1)n2C/C=N/Nc1ccc(C(=O)O)cc1	nt	-1.3	-3%	9	nt
NNc1ccc(Cl)c(C(=O)O)c1	nt	-1.7	-12%	1	nt
CSC1=NCCN1C(=O)Cc1cccc2ccccc12	nt	0.9	-3%	-3	nt
N#Cc1ccccc1Sc1ccccc1C(=O)OCC(=O)NC1CCCCC1	-31	-5.4	0%	3	5
CCCCNC(=O)Nc1ccon1	-10	-1.6	-1%	1	5
O=c1cc2c(n[nH]1)CCCC2	-12	0.6	-3%	3	7
CC1=C(C(=O)OCc2ccc3c(c2)OCO3)C(c2cccc([N+](=O)[O-])c2)NC(=O)N1 (stereo unspecified)	nt	-1.1	9%	4	9
Cc1cc(F)ccc1S(=O)(=O)Nc1ccccc1C(=O)Nc1ccc2[nH]c(=O)[nH]c2c1	-23	2.6	nt	-6	0
Cc1cccc2sc(NC(=O)CN3C(=O)C4CC=CCC4C3=O)nc12 (stereo unspecified)	nt	5.3	2%	-2	5
Cc1ccc(S(=O)(=O)N2CCN(C(=O)Cc3ccc4c(c3)OCCO4)CC2)cc1C	-26	-6.2	-1%	0	-8
C/C(=N/NC(=O)CN1CCN(S(=O)(=O)c2ccc(C)cc2)CC1)c1ccco1	nt	-1.3	0%	-6	nt
CCc1nnc(NS(=O)(=O)c2ccc(NC(=S)NC(=O)c3cccnc3)cc2)s1	nt	-0.6	0%	11	5
COc1ccc(N(CC(=O)Nc2cc(Cl)ccc2OC)S(=O)(=O)c2c(C)[nH]c(=O)[nH]c2=O)cc1	nt	1.4	nt	4	nt
C/C(=N/Nc1ccc([N+](=O)[O-])cc1)c1ccc(C)cc1C	nt	-2.9	42%	58	-20
COc1ccc(CCNC(=S)NCc2cccs2)cc1OC	nt	2.1	8%	0	-7
Cc1cccc(CNC(=O)c2cc(S(=O)(=O)N3CCOCC3)cn2C)c1	nt	-1.6	nt	-5	nt
CCOc1ccc(N2CC(O)=C(c3ccccc3)C2=N)cc1	nt	-2.4	-4%	7	0
C=C(C)c1cccc(C(C)(C)NC(=O)N2CCN(c3ccccn3)CC2)c1	nt	-0.4	9%	1	-4	Arbovirus anti repeat=-4

Next compounds.
SMILES	YopH PTP inh	RecA splice inh	Mtb growth	Mtb bLac sens	Arbovirus anti	others
COc1ccc(C2=C(N)c3ccccc3C2=O)cc1	-12	1.8	-17%	1	-9
O=C(CCc1ccccc1)Nc1ccccc1C(=O)NCc1ccco1	-8	0.7	1%	-1	4
CCNC(=O)CSc1nc2ccccc2c(=O)n1CCCOC(C)C	-27	0.4	-11%	-3	0
COc1ccc(C(=O)NCC(=O)N2CCCC(C)C2)cc1OC (stereo unspecified)	nt	6.8	3%	-13	3
CC(C)(C)c1ccccc1NC(=O)Cn1cnc2cc([N+](=O)[O-])ccc2c1=O	nt	-4.0	2%	1	-1
CC(=O)NC1=NN(C(C)=O)C(C)(CS(=O)(=O)c2ccc(Cl)cc2)S1 (stereo unspecified)	-23	7.1	-1%	-11	0
COc1ccc2sc(N(CCCN(C)C)C(=O)c3nc4ccccc4s3)nc2c1	nt	1.9	8%	-3	-9
O=C(CSc1nc(=O)n(CCCN2CCOCC2)c2c1CCC2)Nc1ccc(F)cc1F	nt	1.0	nt	-3	nt
CCOc1ccc(Nc2nc(-c3sc(N)nc3C)cs2)cc1	nt	13	nt	98	nt
NC(=O)c1nsc(C(=O)N(c2ccccc2)C(C(=O)NC2CCCC2)c2ccncc2)c1N (stereo unspecified)	nt	0.4	nt	-5	nt
COC(=O)[C@@H]1C[C@@]2(O)[C@H](O)[C@H](O)[C@H](O)C[C@H]2N1Cc1ccc(C(C)(C)C)cc1	nt	-1.6	-2%	-4	nt
CCCCOc1ccc(N(CC(=O)NCC2CCCO2)C(=O)CCC(=O)Nc2cc(C)ccn2)cc1 (stereo unspecified)	-26	15	-12%	84	-3
CC(C)CCNC(=O)C1CCN(c2nnc(-n3cccc3)s2)CC1	-43	1.5	8%	-6	-2
O=C(CSCc1ccc(Br)cc1)N=Nc1c(O)[nH]c2ccccc12	-21	5.2	0%	11	14
COc1ccc2c(c1)C1(Nc3ccccc3-c3nc4ccccc4n31)C(=O)N2C (stereo unspecified)	-22	-0.5	-1%	-6	8
CSc1nnc(-c2cnccn2)n1Cc1ccccc1	-27	0.6	-1%	-8	5
O=C(Nc1ccccc1Cl)c1ccc(Cl)cc1Cl	nt	0.4	6%	40	0
COc1ccccc1/C=N/NC(=O)c1cc2c(ccc3ccccc32)o1	nt	-1.4	nt	73	nt
CCc1ccc(-n2c(O)c(C=NCCN(CC)CC)c(=O)[nH]c2=O)cc1	-24	nt	-6%	nt	8
CCCOc1ccc(N2C(=O)CC(NCC#N)C2=O)cc1 (stereo unspecified)	nt	0.7	nt	-14	nt
COC(=O)C1CCN(CC(N)=O)CC1	-8	8.8	-7%	1	7
Cn1c(CNc2ccc(F)cc2)nc2ccccc21	nt	0.0	nt	-2	nt
O=C(Nc1cccc(S(=O)(=O)c2cccc(NC(=O)c3ccco3)c2)c1)c1ccco1	nt	5.1	3%	-3	nt
Cc1ccc(S(=O)(=O)Nc2ccc(C(=O)NCc3ccncc3)cc2)cc1	nt	0.3	nt	-12	nt

Molecules shown so far that contain a COOH group:
SMILES	YopH PTP inh	RecA splice inh	Mtb growth	Mtb bLac sens	Arbovirus anti	others
COc1ccc(CN(C(=O)COc2ccccc2)c2ccccc2C(=O)O)cc1	nt	0.8	-4%	-5	nt
Cn1c(=O)[nH]c(=O)c2c1nc(N1CCCCC1)n2C/C=N/Nc1ccc(C(=O)O)cc1	nt	-1.3	-3%	9	nt
NNc1ccc(Cl)c(C(=O)O)c1	nt	-1.7	-12%	1	nt

Screens as filed in PubChem.

This is a subset, so the mix of outcomes need not match the whole.
